# Assay outcomes deposited in PubChem BioAssay by National Center for Advancing Translational Sciences (NCATS).
# Vaccinia Venus: inhibitors of vaccinia virus (Venus reporter); actives 0.46% (n = 330,000); Potency, µM (doses to about 36.5 µM), for the others: at the highest dose activity change, negative = inhibition, most hits filed as inhibitors; Vaccinia virus Venus reporter expression, fluorescence; AID 720580; active means well fitted inhibition curve with a large enough effect; inconclusive means small, poorly fitted or top-dose-only effect; inactive means no such curve, though single readings can be large or run the other way; tested in A549 cells; note: nearly all actives have a fitted effect of over 30% in size; inactives centre near -10
# VACV mCherry inh: inhibitors of vaccinia virus infection (mCherry reporter signal). Vaccinia virus mCherry reporter infection, fluorescence; about a quarter of the inactives have no number. actives 0.63% (n = 310,000). Potency, µM (highest dose often 36.5 µM), for inactives: at the top dose activity change, negative = inhibition, hits mostly inhibitors; active = well fitted inhibition curve with a large enough effect; inconclusive = small, poorly fitted or top-dose-only effect; inactive = no such curve, though single readings can be large or run the other way; tested in A549 cells; note: nearly all actives have a fitted effect of over 35% in size; inactives centre near -10
# * marks the source's active call; other numbers are inactive results; i = inactive; ? = inconclusive; · = no result given; & = joins results of further samples; [ ] = another dose, or the depositor's remark. % is set by controls: 0 for no effect and ±100 for the full control effect; potency is the fitted concentration of half-maximal effect.
SMILES,Vaccinia Venus,VACV mCherry inh
O=C(COC(=O)/C=C/c1ccccc1[N+](=O)[O-])NC1CC1,-7.5%,i
C/C=C(\C)CN1CCN(c2ccc(C)cc2)CC1,-27.0%,?
COc1cc(C2CC(=O)C3=C(C2)Nc2ncnn2C3c2cccs2)cc(OC)c1OC (centres undefined),-10.2%,i
COc1ccc(C(=O)NCC2CCCO2)cc1S(=O)(=O)N1CCCc2ccccc21 (centres undefined),-15.6%,i
COC(=O)c1ccccc1NC(=O)COC(=O)[C@H](C)NC(N)=O,-9.9%,-8.9%
NC(=O)CN1C(=O)NC2(CCCc3sccc32)C1=O (centres undefined),-7.8%,i
CCNS(=O)(=O)c1ccc(CCC(=O)Nc2ccc3c(c2)OCO3)cc1,-4.8%,-1.7%
Cc1cc(-c2n[nH]c(=S)n2/N=C/c2cccc([N+](=O)[O-])c2)n[nH]1,0.7%,-13.9%
COc1ccc(-c2noc(CSc3nnc(-c4ccncc4)n3-c3ccc(C)cc3)n2)cc1OC,2.7%,7.7%
Cc1onc(-c2c(Cl)cccc2Cl)c1C(=O)N1CCN(c2ccc(F)cc2)CC1,-14.1%,-29.1%
O=C(NCCN1CCOCC1)c1cc(-c2ccccc2)on1,-21.7%,-12.9%
COc1ccc(/C=C/C(=O)Nc2ccccc2)cc1OC,-0.6%,-3.6%
COc1cccc(N(CC(=O)Nc2ccccc2C(=O)N2CCCC2)S(C)(=O)=O)c1,-1.0%,-4.9%
CCN1CCN(C(=S)NC(C)c2ccccc2)CC1 (centres undefined),-6.8%,-13.5%
CCSc1nc(N2CCOCC2)c2c(c1C#N)CCCC2,-14.3%,·
Nc1ccc2c(c1)C(O)c1cccc(C(=O)O)c1-2 (centres undefined),-4.7%,i
O=C(Nc1ccc(Oc2ccccc2)cc1)c1ccc(Cn2c(=O)[nH]c3ccsc3c2=O)cc1,-28.5%,i
COc1cc2c(=O)n(CCC(=O)NCC3CCCO3)c(=O)n(CC(=O)Nc3ccccc3C)c2cc1OC (centres undefined),-6.9%&3.0%,-7.9%
Clc1ccc2scc(CN3CCCCC3)c2c1,-18.7%,i
Cc1ccc(C)c(NC(=O)C2CC3c4ccccc4C2c2ccccc23)c1 (centres undefined),-19.1%,·
Cc1ccsc1C(=O)C1CCCN(Cc2cc(C(C)C)n[nH]2)C1 (centres undefined),-6.0%,-17.6%
Cc1c(CC(=O)NCc2ccccc2Cl)c(=O)oc2cc(O)ccc12,-7.4%,-0.7%
Cc1c(-c2cccc(Cl)c2)nc2ccccc2c1C(=O)OCC(=O)Nc1ccc2c(c1)OCO2,?,?
COc1ccc(CNC(=O)CCC(=O)N2C[C@H]3C[C@H](C2)c2cccc(=O)n2C3)cc1,2.0%,-1.8%
Cc1c(Cl)ccc2c(C(=O)O)cc(-c3ccccc3)nc12,-11.7%,-4.0%

# No new results follow: 23 of the compounds above.
SMILES,Vaccinia Venus,VACV mCherry inh
O=C(COC(=O)/C=C/c1ccccc1[N+](=O)[O-])NC1CC1,-7.5%,i
C/C=C(\C)CN1CCN(c2ccc(C)cc2)CC1,-27.0%,?
COc1cc(C2CC(=O)C3=C(C2)Nc2ncnn2C3c2cccs2)cc(OC)c1OC (centres undefined),-10.2%,i
COc1ccc(C(=O)NCC2CCCO2)cc1S(=O)(=O)N1CCCc2ccccc21 (centres undefined),-15.6%,i
COC(=O)c1ccccc1NC(=O)COC(=O)[C@H](C)NC(N)=O,-9.9%,-8.9%
NC(=O)CN1C(=O)NC2(CCCc3sccc32)C1=O (centres undefined),-7.8%,i
CCNS(=O)(=O)c1ccc(CCC(=O)Nc2ccc3c(c2)OCO3)cc1,-4.8%,-1.7%
Cc1cc(-c2n[nH]c(=S)n2/N=C/c2cccc([N+](=O)[O-])c2)n[nH]1,0.7%,-13.9%
COc1ccc(-c2noc(CSc3nnc(-c4ccncc4)n3-c3ccc(C)cc3)n2)cc1OC,2.7%,7.7%
Cc1onc(-c2c(Cl)cccc2Cl)c1C(=O)N1CCN(c2ccc(F)cc2)CC1,-14.1%,-29.1%
O=C(NCCN1CCOCC1)c1cc(-c2ccccc2)on1,-21.7%,-12.9%
COc1ccc(/C=C/C(=O)Nc2ccccc2)cc1OC,-0.6%,-3.6%
COc1cccc(N(CC(=O)Nc2ccccc2C(=O)N2CCCC2)S(C)(=O)=O)c1,-1.0%,-4.9%
CCN1CCN(C(=S)NC(C)c2ccccc2)CC1 (centres undefined),-6.8%,-13.5%
CCSc1nc(N2CCOCC2)c2c(c1C#N)CCCC2,-14.3%,·
Nc1ccc2c(c1)C(O)c1cccc(C(=O)O)c1-2 (centres undefined),-4.7%,i
O=C(Nc1ccc(Oc2ccccc2)cc1)c1ccc(Cn2c(=O)[nH]c3ccsc3c2=O)cc1,-28.5%,i
COc1cc2c(=O)n(CCC(=O)NCC3CCCO3)c(=O)n(CC(=O)Nc3ccccc3C)c2cc1OC (centres undefined),-6.9%&3.0%,-7.9%
Clc1ccc2scc(CN3CCCCC3)c2c1,-18.7%,i
Cc1ccc(C)c(NC(=O)C2CC3c4ccccc4C2c2ccccc23)c1 (centres undefined),-19.1%,·
Cc1ccsc1C(=O)C1CCCN(Cc2cc(C(C)C)n[nH]2)C1 (centres undefined),-6.0%,-17.6%
Cc1c(CC(=O)NCc2ccccc2Cl)c(=O)oc2cc(O)ccc12,-7.4%,-0.7%
Cc1c(-c2cccc(Cl)c2)nc2ccccc2c1C(=O)OCC(=O)Nc1ccc2c(c1)OCO2,?,?

# The results go on.
SMILES,Vaccinia Venus,VACV mCherry inh
Cc1ccc(C)c2sc(NC(=O)c3nc4ccccc4s3)nc12,-6.8%,?
O=[N+]([O-])c1cc(C(F)(F)F)ccc1N1CCN(S(=O)(=O)c2ccc3ccccc3c2)CC1,?,·
CCOC(=O)C1C(=O)CC(C)(O)C(C(=O)OCC)C1c1ccccc1OC (centres undefined),1.2%,-16.9%
O=S(=O)(Nc1ccc(Cl)cn1)c1ccc2c(c1)OCCO2,-9.1%,-22.3%
CCC(C)(C)NC(=O)CN(C(=O)CCC(=O)Nc1nccs1)c1cccc(C)c1C,-13.2%,-15.5%
O=C1C(=O)N(CCN2CCOCC2)C(c2ccccn2)/C1=C(/O)c1ccc(Cl)cc1 (centres undefined),-4.5%,i
COc1ccc(CCn2c(=O)c3cccnc3n(CC(=O)Nc3c(C)cc(C)cc3C)c2=O)cc1OC,-2.7%,-16.2%
Cc1noc(C)c1NC(=O)N(C)C[C@H]1Oc2ccc(NC(=O)NC3CCCCC3)cc2C(=O)N([C@H](C)CO)C[C@@H]1C,0.6%,-2.1%
O=C(Nc1cc([N+](=O)[O-])ccc1C(=O)NCCN1CCOCC1)c1ccccc1,-1.1%,-14.2%
CCOC(=O)C(CCSC)Nc1nc(Cl)nc(Nc2ccc(Cl)cc2)n1 (centres undefined),-0.1%,i
Cc1ccc(S(=O)(=O)N(CC(=O)N/N=C/c2ccccc2C(=O)O)c2cc(Cl)cc(Cl)c2)cc1,-4.4%,?
CN(C)S(=O)(=O)c1cccc(NC(=O)COC(=O)CCC(=O)c2cccs2)c1,2.3%,-12.1%
COc1ccc(Cl)cc1NC(=O)CN(C)C(=O)c1cn(-c2ccccc2)nc1-c1cccs1,?,-28.8%
Cc1nonc1OCCNc1ccc([N+](=O)[O-])cc1[N+](=O)[O-],4.2%,-13.8%
Cc1ccc(Cl)cc1N1CCN(S(=O)(=O)c2c(C(=O)N3CCOCC3)c(C)n(C)c2C)CC1,-18.7%,-17.6%
COc1cccc(C(=O)Nc2nc(-c3nnn(-c4cc(C)ccc4C)c3C)ns2)c1,-14.6%,-19.7%
CCCN1CC(O)=C(C#N)C1=O,-13.0%,-1.8%
COc1cccc(CN(C)CC(=O)Nc2cccc3ccccc23)c1,-5.3%,i
C=CC[C@@H](Cc1ccc(F)cc1)C(=O)OC[C@H]1CCCN1C(=O)[C@@H](CC=C)CC(=O)N(CCO)Cc1ccccc1,-25.8%,-10.9%
CCCN1CCN(CCCNC(=O)c2ccc3nc(Cc4ccccc4)oc3c2)CC1,-3.5%,-12.5%
C#CCOCCOCCOCCNc1nc(N2CCOCC2)nc(N2CCN(C(=O)[C@H]([C@@H](C)CC)n3cc(CCCCN)nn3)CC2)n1,-8.8%,-7.8%
CNCC/C=C1/c2ccccc2CSc2ccccc21,?,?
O=C(OCc1cc(=O)n2nc(C3CC3)sc2n1)c1ccc(NC(=O)c2ccccc2F)cc1,-5.3%,-6.9%
CCCn1c(C(C)Nc2nc(-c3ccc(OC)cc3)cs2)nc2ccccc21 (centres undefined),-14.6%,-11.5%
C#CCOCCOCCOCCNc1nc(N2CCN(C(=O)[C@H](CC(N)=O)n3cc([C@@H](N)CC(N)=O)nn3)CC2)nc(N2CCN(C(=O)[C@H](CC(N)=O)n3cc([C@@H](N)CC(N)=O)nn3)CC2)n1,-4.1%,-13.7%

# Some of the entries so far, with values under each structure.
# Screens in order: Vaccinia Venus	VACV mCherry inh
> Cc1ccc(C)c(NC(=O)C2CC3c4ccccc4C2c2ccccc23)c1 (centres undefined)
→ -19.1%	·
> Cc1nonc1OCCNc1ccc([N+](=O)[O-])cc1[N+](=O)[O-]
→ 4.2%	-13.8%

# Next structures
SMILES,Vaccinia Venus,VACV mCherry inh
CC(C)(C)NC(=O)c1ccc(COCC(F)(F)F)o1,-8.8%,i
CC(C)c1ccc(C2=NN(c3ccccc3)C(=O)CC2)cc1,-19.0%,-22.5%
CCCCCOC(=O)CSc1nc2sc3c(c2c(=O)n1-c1ccccc1)CC(C)(CC)OC3 (centres undefined),7.2%,1.0%
O=C(Cn1cc(C(F)(F)F)ccc1=O)N/N=C/c1ccccc1,6.0%,6.2%
COc1ccc(CNC(=O)C2CCN(C(=O)c3cccc(Cl)c3)CC2)cc1,-10.2%,-6.1%
CN(C1CCCCC1)S(=O)(=O)c1ccc(=S)[nH]c1,-0.4%,-15.9%
CC(=O)N/C(=C/c1ccc(Cl)cc1)C(=O)NCCc1c[nH]c2ccccc12,-26.0%,-7.1%
CCc1nc2cc3sc(CC)nc3cc2s1,-12.9%,-12.4%
Cc1nc2sccn2c1-c1csc(NCc2ccccc2)n1,?,?
CCN1C(=O)[C@H]2[C@@H](c3ccc(-c4ccc5c(c4)OCO5)c(OC)c3)N[C@@](C)(C(=O)OC)[C@H]2C1=O,-11.2%,i
CC(C)NC(=O)C1CCCN(c2ncnc3c2nc2n3CCCCC2)C1 (centres undefined),6.2%,-7.5%
c1cnc(N2CCNCC2)nc1,-5.8%,i
CC1(C)Cc2cccc(C(=O)NC3CCN(Cc4ccccc4)CC3)c2O1,-11.2%[7.34 µM],-0.1%[7.34 µM]
CCc1nn(CC(=O)NCCCN2CCOCC2)c(=O)c2cc3cc(F)ccc3n12,-8.1%,-7.4%

# Single entries from the list:
# Value for CCc1nc2cc3sc(CC)nc3cc2s1 under Vaccinia Venus: -12.9%
# Value for COc1ccc(CNC(=O)C2CCN(C(=O)c3cccc(Cl)c3)CC2)cc1 under Vaccinia Venus: -10.2%
# Value for CC1(C)Cc2cccc(C(=O)NC3CCN(Cc4ccccc4)CC3)c2O1 under VACV mCherry inh: -0.1%[7.34 µM]
